Screening results: PubChem, National Center for Advancing Translational Sciences (NCATS)
RE007 growth inh: less growth of the S. pombe RE007 Vpr strain; S. pombe RE007 Vpr strain, BacTiter-Glo ATP luminescence, 24 h; control for the full effect not named in the record; Potency, µM (titrated, usually from 92.2 µM), for inactives: at the top dose activity change, negative = less growth; 0.21% of 360,000 active; AID 651644; active = well fitted falling curve with a large enough effect; inconclusive = small, poorly fitted or top-dose-only effect; inactive = no such curve, though single readings can be large or run the other way;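 also: % is scaled to controls: 0 for no effect and ±100 for the full control effect; nearly all actives have a fitted effect of over 50% in size; the assay follows cell death caused by Vpr and the record does not say whether a fall means rescue or toxicity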
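Fission yeast strain RE007, carrying one chromosomally integrated HIV-1 vpr copy, was seeded at OD 0.01 in PMG+AL medium with 23 nL pinned compound. After 24 h at 30 °C and 99% humidity, viability was read by BacTiter-Glo luminescence.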
SARS PLP yeast: inhibitors of SARS-CoV papain-like protease in yeast; Potency, µM (titrated, usually from 32.9 µM), without a hit: at the highest dose activity, positive = growth rescue; 0.19% of 330,000 active; AID 485353; S. cerevisiae expressing SARS-CoV PLpro, growth rescue; control for the full effect not named in the record; active means well fitted rising curve with a large enough effect; inconclusive means small, poorly fitted or top-dose-only effect; inactive means no such curve, though single readings can be large or run the other way; also: 0% is about no effect; nearly all actives have a fitted effect of over 55% in size; growth read by luminescence after 48 h
2A StopGo: FMDV 2A StopGo reporter, luciferase signal; 1.2% of 410,000 active; Potency, µM (top dose mostly 57.9 µM), for the others: at the highest dose signal change, negative = less light; human cells with a luciferase reporter of 2A StopGo recoding; control for the full effect not named in the record; active = well fitted falling curve with a large enough effect; inconclusive = small, poorly fitted or top-dose-only effect; inactive = no such curve, though single readings can be large or run the other way; tested in HEK293T cells; also: % is scaled to controls: 0 for no effect and ±100 for the full control effect; nearly all actives have a fitted effect of over 45% in size; luciferase light after 4 h
The depositor's hits bear a star; ? = inconclusive; [ ] = dose if it differs, or a comment. Potency is read from the fitted curve at half-maximal effect. A portion of the library. The share of hits here may be higher or lower than overall.

SMILES	RE007 growth inh	SARS PLP yeast	2A StopGo
COc1ccc(C(=O)CCNc2ccc3c(c2)OCCO3)cc1	?	2%	46%[activator]
C=CC[C@@H](CC(=O)N[C@@H](CO)Cc1ccccc1)C(=O)N[C@H](COC(=O)[C@@H](CC=C)CC(=O)OC(C)(C)C)Cc1c[nH]c2ccccc12	-22%	-5%	35µM*
O=C(NCc1ccccn1)C1CCN(S(=O)(=O)c2ccccc2F)CC1	0%	4%	-8%
CC(=O)C[C@H](O)CC(=O)[C@@H]1OC(=O)CCCCCCc2ccccc21	-7%	-6%	-18%
Cn1cnnc1SCC(=O)NC(=O)NCc1ccccc1	2%	-13%	-15%
Cc1ccccc1C(=O)N1CCC(C(=O)Nc2cccc(S(=O)(=O)N3CCCCC3)c2)CC1	-17%	-2%	?
O=C(CSc1nc2nn(-c3ccccc3)c(=O)c-2c2n1CCCCC2)c1ccc(OC(F)F)cc1	0%	0%	-16%
COc1ccc(N(C)S(=O)(=O)c2cccc(C(=O)Nc3ccc(N4CCOCC4)cc3)c2)cc1	-14%	3%	?
COc1cc(/C=N/NC(=O)CC2(C)OCCO2)cc(Br)c1O	-4%	2%	-7%
O=C1CCN(Cc2ccccc2)S(=O)(=O)c2c(F)cc(F)cc21	-2%	0%	-20%
N#Cc1ccc(NCC(=O)Nc2ccc(S(=O)(=O)N3CCCCC3)cc2)cc1	8%	8%	-8%
O=C1CC/C=C\C[C@@H](CC(=O)N(CCO)Cc2ccccc2)C(=O)NCCO1	-3%	-6%	-18%
Cc1ccc(-n2nnnc2SCC(=O)c2c(N)n(C3CC3)c(=O)[nH]c2=O)cc1C	5%	-4%	-21%
CCCNC(=O)N1[C@H]2CC[C@@H]1C(C(=O)OC)=C(c1ccc(F)cc1OCc1ccccc1)C2	-1%	-6%	-10%
Cc1ccc2nnn(Cc3cccc(C(C)(C)C)c3O)c2c1	-27%	0%	?
Cc1ccc(NC(=O)c2cccs2)cc1NC(=O)c1cccnc1	0%	0%	-2%
COc1cc(OC)cc(C(=O)Nc2ccc(N3CCOCC3)cc2N2CCOCC2)c1	-1%	11%	15%
COC(=O)CCc1c(C)c(C(=O)c2cc(F)c(F)c(F)c2F)c2ccccn12	1%	-29%	-10%
CCOC(=O)c1sc2nc(C)nc(SCC(=O)N(CC)C3CCS(=O)(=O)C3)c2c1C (stereo not drawn)	-3%	-4%	?
COC(=O)C1=C(c2ccc(OC)c(OC)c2)C[C@@H]2CC[C@H]1N2C(=O)NCc1cccc2ccccc12	-2%	-9%	-4%
CCOC(=O)C1=CN(Cc2cccc(F)c2)S(=O)(=O)NC1c1ccccc1 (stereo not drawn)	-4%	-16%	-3%
CCN(C(=O)COC(=O)c1cc([N+](=O)[O-])ccc1N1CCOCC1)c1ccccc1	5%	1%	1%
Cc1cccc(C(=O)OCC(=O)Nc2ccc3c(c2)OCCO3)c1O	-20%	-6%	41%[activator]
Cc1ccc(S(=O)(=O)N2CCOCC2)cc1C(=O)OCC(=O)NC1CCCC1	1%	-5%	3%
O=C(Nc1cccc(Cl)c1)c1nc[nH]c1C(=O)N1CCc2ccccc2C1	1%	-1%	8%

(more compounds)
SMILES	RE007 growth inh	SARS PLP yeast	2A StopGo
C=CC[C@H](CC(=O)N[C@H](CO)Cc1ccccc1)C(=O)N[C@H](COC(=O)[C@H](CC=C)CC(=O)OC(C)(C)C)Cc1c[nH]c2ccccc12	-6%	2%	-12%
CCNC(=O)N(C)C[C@H]1N[C@@](CC)(C(=O)OC)[C@H]2C(=O)N(Cc3ccccc3)C(=O)[C@@H]12	0%	3%	0%
Cc1cc2nc3n(c2cc1C)CC1CC(C(=O)NCc2ccccc2)N(C)C31 (stereo not drawn)	1%	-3%	-20%
CC(C)(C)OC(=O)C[C@@H]1C/C=C\C[C@@H](CC(=O)N[C@@H](CO)Cc2ccccc2)C(=O)NCCOC1=O	-11%	0%	-22%
COc1cc2c(cc1OC)[C@@H](NC(=O)CCC1CCCCC1)[C@H](O)C2	-12%	4%	-23%
COC(=O)C1=C(c2ccc3ccccc3c2)C[C@@H]2CC[C@H]1N2C(=O)N1CCCCC1	13%	-13%	?
COc1ccc(NC(=O)COc2ccc(C)nc2[N+](=O)[O-])cc1S(N)(=O)=O	18%	1%	-20%
CCN(CC)C(=O)Cn1c(=O)n(-c2ccccc2)c(=O)c2sccc21	-1%	3%	-19%
COC(=O)[C@H](CCSC)NC(=O)Cn1ccc(N)nc1=O	-1%	-2%	-6%
N#CCCN(C(=O)COC(=O)CCC(=O)c1ccc(F)cc1)c1ccccc1	23%	0%	-1%
CCOc1ccc(N=C2SC(C(=O)Nc3ccccc3C#N)C(N)=C2C(=O)Nc2ccc(Cl)cc2)cc1 (stereo not drawn)	7%	1%	1%
COc1ccc(CN(C)C(=O)Cn2ccc(NC(=O)OCc3ccccc3)nc2=O)cc1OC	-11%	3%	-29%
CCc1ccc(C(=O)OCC(=O)N(CC)c2c(N)n(Cc3ccccc3)c(=O)[nH]c2=O)cc1	-15%	1%	-11%
COC1C=CC(CNC(=O)c2cc3c(=O)n4cccc(C)c4nc3n2C)(OC)O1 (stereo not drawn)	12%	2%	?
C/C=C(/C)C(=O)O[C@@H]1Cc2c(ccc3ccc(=O)oc23)OC1(C)C	0%	0%	-23%
O=S(=O)(Nc1ccccc1F)c1ccc(Cl)nc1	23%	-2%	-2%
Cc1ccc(NCc2nnc(SCC(=O)Nc3nnc(C)s3)n2C)cc1	8%	0%	-18%
Cc1cccc(NC(=O)C(C)Oc2ccc(C)nc2[N+](=O)[O-])c1 (stereo not drawn)	-8%	-2%	21%
CN(C)S(=O)(=O)c1ccc(N2CCCC2)c(C(=O)NNC(=O)c2ccccc2)c1	14%	-9%	-7%
C/C(=C/C(=O)O)C(=O)Nc1cccc(C(F)(F)F)c1	-4%	1%	0%
Cc1ccccc1NC1=NC2(CCCC2)N=C(N)N1	4%	2%	-10%
Cc1ccc(C2=NCCn3c2c2ccc(C(F)(F)F)cc2[n+]3[O-])cc1	-8%	1%	13%
COc1ccc([C@H]2CC(=O)C=C(c3ccc(C)cc3)C2)cc1	-16%	-1%	18%
COc1ccc(CN2C(=O)C(Cc3ccccc3)Nc3ncnc(N4CCCCC4)c32)cc1 (stereo not drawn)	4%	1%	6%
CCOC(=O)c1c(NC(=O)COC(=O)/C=C/c2ccccc2)sc(C(=O)NC)c1C	14%	4%	-4%

Next structures follow.
SMILES	RE007 growth inh	SARS PLP yeast	2A StopGo
Cc1ccccc1-c1cc(C(=O)NCc2ccc3c(c2)OCO3)nn1CC1CC(c2cccc([N+](=O)[O-])c2)=NO1 (stereo not drawn)	-4%	-3%	13%
CCCn1c(N)c(N(CCOC)C(=O)/C=C/c2ccc(C(=O)OC)cc2)c(=O)[nH]c1=O	-18%	21%	-10%
O=C(Nc1ncn[nH]1)c1cccc(F)c1	3%	-2%	-9%
O=C(COC(=O)Cc1c(Cl)cccc1Cl)NC1CCCC1	-9%	-11%	-8%
CC(C)(C)OC(=O)N1CCN(C(=O)c2[nH]cnc2C(=O)Nc2ccon2)CC1	8%	8%	3%
CCOc1cc(N2CCOCC2)c(OCC)cc1NC(=O)Cn1cnnn1	3%	7%	-16%
Cc1ccc(C(=O)NCC(=O)N2CCCCCCC2)cc1C	19%	2%	48%[activator]
O=C(OCC(=O)N1CCCCCC1)c1cccnc1Cl	-2%	1%	75%[activator]
COc1ccc2oc(C(=O)OCC(=O)N(C)C3CCCCC3)c(C)c2c1	-2%	3%	-25%
COc1cccc([C@@H]2CC=C(C(=O)O)[C@H](c3ccc(F)cc3)N2S(=O)(=O)c2ccc(C)cc2)c1	4%	-6%	6%
Cc1ccccc1OCC(O)CN1CCN(CC(O)COc2ccccc2C)CC1 (stereo not drawn)	-4%	0%	-11%
O=C(Nc1cccnc1)c1ccc([N+](=O)[O-])s1	5%	-12%	-12%
N#Cc1c(C(F)(F)F)cc(=O)[nH]c1SCC(=O)O	-8%	3%	-21%
C=CCNC(=O)C1CCN(c2cnccn2)CC1	2%	6%	-6%
O=C(NCc1cccnc1)C(=O)N/N=C/c1ccccc1[N+](=O)[O-]	3%	-3%	1%
COc1cc2sc(-c3ccc(S(C)(=O)=O)cc3)c(-c3ccc4c(c3)OCO4)c2cc1OC	13%	-1%	-20%
O=C(CCc1c[nH]c2ccccc12)NN1C(=O)NC2(CCCCC2)C1=O	-5%	3%[6.58 µM]	-5%
Cc1cccc(-n2c(SCC(=O)N3CCN(c4ccccn4)CC3)nnc2N2CCOCC2)c1	5%	0%	-17%
Cc1cccc(NC(=O)c2nc[nH]c2C(=O)NCCCNC(=O)c2[nH]cnc2C(=O)Nc2cccc(C)c2)c1	9%	2%	?
COc1ccc(CCC(=O)OCC(=O)Nc2sccc2C(N)=O)cc1	5%	2%	-8%
COc1cccc(-c2ncc3ccccc3c2COC(=O)N2CCOCC2)c1	2%	-5%	17%
Cc1ccc(C(=O)NCC(=O)Nc2ccc(S(=O)(=O)Nc3cc(C)nc(C)n3)cc2)cc1	3%	3%	21%
COCCNC(=O)C(NC(=O)C1CCC(C)CC1)C(C)C (stereo not drawn)	4%	-4%	-5%
O=C(CSc1nnc(-c2ccccc2F)o1)Nc1ccc(N2CCOCC2)cc1	-2%	-2%	-4%
